High-throughput results from PubChem BioAssay.
Menin MLL FP FL: displaces fluorescein MLL peptide from human menin. Fluorescence polarization, fluorescein-MLL peptide displacement from menin. 290,000 tested, under 10 active. FP activity change, % at 61.4 µM; inconclusive = falling polarisation curve, or a change in total fluorescence; inactive = total fluorescence flat and polarisation flat or rising; no compound was filed as active; the % refers to the polarisation; negative = inhibition;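 note: % of control where 0% means no effect; inhibitors lower the polarisation; unlabelled MLL peptide was the positive control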
gsp agonist: agonists of gsp mutant (McCune-Albright syndrome). actives 0.13% (n = 340,000). Potency, µM (titrated, usually from 76.9 µM), inactives show at the top dose activation (cAMP increase), actives largely listed as activators. AID 624287. gsp mutant cells, cAMP HTRF, 30 min; control for the full effect not named in the record; active = well fitted activation curve with a large enough effect; inconclusive = small, poorly fitted or top-dose-only effect, or another doubt; inactive = no such curve, though single readings can be large or run the other way; cell line not stated here;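 note: phosphodiesterase inhibitor Ro 20-1724 added with compounds to block cAMP breakdown; potency is the fitted concentration of half-maximal effect; nearly all actives have a fitted effect of over 60% in size; about a fifth of the inactives were tested at one dose only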
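Cells in DMEM/10% FBS with G418 were pretreated with compounds in DMSO plus […] (300 uM stock) for 30 min at 37C. cAMP was measured by HTRF (cAMP-d2 plus anti-cAMP antibody-K) after 30 min at room temperature.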
ClpP mod: qHTS Assay for Activators of ClpP; ATP-dependent Clp protease proteolytic subunit (Bacillus subtilis (strain 168)), P80244; purified B. subtilis ClpP, FRET peptide cleavage, 20 min; Potency, µM (series often up to 57.5 µM), inactives show at the top dose activity change, negative = active; actives 1.9% (n = 340,000); AID 651965, 2013; active = well fitted falling curve with a large enough effect; inconclusive = small, poorly fitted or top-dose-only effect; inactive = no such curve, though single readings can be large or run the other way; note: potency is the fitted concentration of half-maximal effect; the source files actives as falling curves though it sought activators and does not explain the sign; nearly all actives have a fitted effect of over 65% in size; many hits overshoot -100%
Target sequence (P80244 whole entry, looked up): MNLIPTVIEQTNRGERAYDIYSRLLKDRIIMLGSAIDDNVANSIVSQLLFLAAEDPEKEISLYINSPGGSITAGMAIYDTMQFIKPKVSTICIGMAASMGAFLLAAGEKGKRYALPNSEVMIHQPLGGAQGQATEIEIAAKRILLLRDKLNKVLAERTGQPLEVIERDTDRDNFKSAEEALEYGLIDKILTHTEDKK
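FRET quenching reversal measured ClpP activation: 10 microg/mL B. subtilis ClpP at pH 8 with the FRET-FV decapeptide, read at 430 nm after 320 nm excitation. The 20-min minus 0-min signal was scaled between DMSO/no-enzyme wells and ADEP (5.8 microM final).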
D2 agonist: human D2 receptor agonism in beta-arrestin assay. AID 624465. activation, % (concentration not given with the values). P14416. actives 0.084% (n = 360,000). DiscoveRx PathHunter D2 beta-arrestin, luminescence, 90 min; 100% = 57 uM dopamine signal; in the data active = activation above about 40%; inconclusive = about 15% to 40%; inactive = below about 15%; note: compound concentration not given in the record; the text of the record calls up to 30% inactive
Target sequence (P14416 whole entry, looked up): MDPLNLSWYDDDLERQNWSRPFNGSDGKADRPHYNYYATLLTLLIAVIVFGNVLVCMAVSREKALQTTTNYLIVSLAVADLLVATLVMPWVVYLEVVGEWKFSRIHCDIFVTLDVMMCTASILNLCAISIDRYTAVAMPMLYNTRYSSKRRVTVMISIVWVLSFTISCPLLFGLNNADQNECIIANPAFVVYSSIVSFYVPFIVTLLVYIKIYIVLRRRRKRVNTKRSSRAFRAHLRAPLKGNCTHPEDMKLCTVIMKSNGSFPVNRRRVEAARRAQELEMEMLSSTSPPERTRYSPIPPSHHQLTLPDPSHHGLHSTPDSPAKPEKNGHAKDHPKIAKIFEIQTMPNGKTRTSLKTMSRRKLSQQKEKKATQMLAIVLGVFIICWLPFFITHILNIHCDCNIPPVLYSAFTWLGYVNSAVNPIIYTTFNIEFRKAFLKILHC
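DiscoveRx PathHunter D2 beta-arrestin cells (2,100/well) attached overnight, then compound-stimulated 90 min at 37 C in HBSS/10 mM HEPES/0.1% Tween-20 buffer; beta-galactosidase complementation read by luminescence after 1 h at ambient temperature. Dopamine 57 uM final (EC100) as control.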
Sfp inh: Sfp phosphopantetheinyl transferase inhibition. Biochemical Sfp PPTase activity, qHTS. Potency, µM, for the others: max response, negative = inhibition, hits mostly inhibitors. actives 3.5% (n = 310,000); active = well fitted inhibition curve with a large enough effect; inconclusive = small, poorly fitted or top-dose-only effect, or another doubt; inactive = no such curve, though single readings can be large or run the other way;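 note: the enzyme is Sfp with the accession as filed and its product quenches rhodamine fluorescence; potency is the fitted concentration of half-maximal effect; 0% = enzyme reaction without inhibitor and -100% = no enzyme wells; top concentration of the series not given in the record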
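Buffer: 50 mM Hepes-Na pH 7.6, 10 mM MgCl2, 0.01% Nonidet P-40, 0.01% BSA. Enzyme 15 nM, pre-exposed to compound 15 min; substrates then added and fluorescence change tracked over 30 min.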
gsp antag: gsp mutant antagonism; actives 0.4% (n = 340,000); gsp-mutant cells, cAMP HTRF, 30 min; control for the full effect not named in the record; AID 624288; Potency, µM (top dose mostly 76.9 µM), inactives show at the highest dose activity change, negative = inhibition, usual class: inhibitors; active = falling curve of any shape with a large fitted effect; inconclusive = falling curve, mostly with a smaller effect; inactive = flat or rising curve; cell line not stated here;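 note: intracellular cAMP measured with PDE inhibitor Ro 20-1724 present during compound exposure; potency is the fitted concentration of half-maximal effect; % is set by controls: 0 for no effect and ±100 for the full control effect; nearly all actives have a fitted effect of over 65% in size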
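HTRF cAMP measurement after 30 min RT detection following 30 min, 37C compound treatment alongside […] (added as 300 uM solution) in G418-selected cells seeded at 2000/well and grown 16–24 h.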
PINK1 modulator: modulators of PINK1 expression. PINK1 immunofluorescence, high-content cytometry, 24 h. actives 0.2% (n = 410,000). Potency, µM (highest dose often 76.6 µM), without a hit: at the highest dose activation (PINK1 increase), most hits filed as activators; active = well fitted activation curve with a large enough effect; inconclusive = small, poorly fitted or top-dose-only effect; inactive = flat fitted curve, though single readings scatter; cell line not stated here;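 note: potency is the fitted concentration of half-maximal effect; % of control where 0% means no effect; nearly all actives have a fitted effect of over 65% in size; a mitochondrial uncoupler was the plate control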
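PINK1 protein level read as immunofluorescence by microplate cytometer in a fixed, stained stable cell line after 24 h exposure to five compound concentrations, with CCCP as control.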
* = called active by the depositor; ? = inconclusive; · = not tested or not shown; & = joins results of further samples; [ ] = another dose, or the depositor's remark.

SMILES	Menin MLL FP FL	gsp agonist	ClpP mod	D2 agonist	Sfp inh	gsp antag	PINK1 modulator
Cc1ccc(S(=O)(=O)N(C)Cc2ccc(C(=O)NN=C(CC(C)C)CC(C)C)cc2)cc1	3.4	-3.7%	0.8%	-4.6	-12.4%	-0.1%	-0.4%
C/C(CC(=O)Nc1cc(C)ccn1)=N\NC(=O)C(=O)Nc1cccc(C)c1	6.3	?	4.5%	-1.6	12.7%	-11.7%	1.4%
NS(=O)(=O)c1ccc(CCNC(=O)C(=O)Nc2cc3c4c(c2)CC(=O)N4CCC3)cc1	·	-8.9%	0.7%	-7.7	·	-2.0%	10.4%
O=C(NCc1cccc(C(F)(F)F)c1)C1CC(c2ccccc2F)=NO1 (stereo not drawn)	·	?	-7.2%	1.9	·	15.1%	9.7%
O=C(NC1CCCCC1)C(c1cccs1)N(Cc1cccs1)C(=O)c1cccs1 (stereo not drawn)	0.6	-20.9%	0.7%	-1.6	15.7%	-8.2%	1.1%
CCOC(=O)C(CC)n1cnc2c(nnn2-c2ccc(OC)cc2)c1=O (stereo not drawn)	1.0	?	-5.0%	0.0	12.7%	-6.7%	1.9%[38.3 µM]
O=C1[C@H]2CCC=C[C@H]2[C@H](c2ccccc2Br)N1Cc1ccccc1	0.9	·	-0.4%	1.7	-16.3%	-4.9%	2.1%
CC(C(=O)N1CCc2ccccc21)N1CCN(c2cccc(C(F)(F)F)c2)CC1 (stereo not drawn)	0.3	-9.0%[15.4 µM]	3.5%	-3.5	6.0%	5.3%	2.9%
COc1cc(Br)c(S(=O)(=O)Nc2c(C)n(C)n(-c3ccccc3)c2=O)cc1OC	0.5	-16.0%	-0.7%	-1.0	6.8%	6.1%	-2.5%[38.3 µM]
O=C(c1ccc2ccccc2c1)N1CCN(c2ccc(O)cc2)CC1	-4.1	10.7%	0.1%	0.6	?	8.9%	-2.7%
Cc1ccc(NC(=O)C(=O)Nc2ccccn2)cc1	-1.3	6.2%	?	1.5	6.5%	13.7%	-0.1%
N#Cc1c(NC(=O)COC(=O)c2ccc(S(=O)(=O)N3CCCC3)cc2)sc2c1CCCCC2	11.6	-11.6%	·	-0.1	-8.4%	1.2%	1.4%
Cc1ccc(-c2nc(SCC(=O)NCC3CCCO3)c(-c3ccc(C)cc3)[nH]2)cc1 (stereo not drawn)	-1.1	-32.9%	25.1µM*	-8.1	-15.8%	-2.7%	-0.7%&-0.1%
CSc1ncccc1C(=O)OCC(=O)NCc1ccc2c(c1)OCO2	-1.1	-8.5%	-2.3%	-2.6	7.5%	1.3%	-0.7%
Cc1noc(C)c1S(=O)(=O)NC(=O)C1(C)CCN1C(=O)Cc1ccc(-c2ccccc2)cc1 (stereo not drawn)	·	·	0.1%	-2.9	·	·	1.3%
CNCc1c(OCc2ccc(F)cc2)ccc2ccccc12	-3.2	-24.3%	·	-2.4	-23.3%	14.1%	21.7%
CCOC(=O)Cc1nnc(NC(=O)c2ccco2)s1	1.6	-40.1%[inhibitor]	-1.3%	-2.1	0.2%	6.6%[15.4 µM]	0.5%
CCCS(=O)(=O)NC(=O)C1(C)CCCN(C(=O)c2ccc3ccccc3c2)C1 (stereo not drawn)	·	·	-4.3%	1.1	·	·	0.1%
Cc1ccc(C(=O)NC(=S)Nn2cnnc2)cc1	-2.8	-2.4%	-3.0%	-10.0	28.2µM*	6.3%	-2.1%
COCC(=O)N1CCC2(CC1)CCN(C(=O)Nc1ccc(OC)cc1)CC2	-0.2	·	·	·	15.4%	·	1.4%
O=C(c1nn2c(C(F)(F)F)cc(-c3cccs3)nc2c1Cl)N1CCCc2ccccc21	0.0	-13.2%	-11.8%	-5.4	9.5%	1.0%	3.3%
CCOC(=O)C1=C(C)OC(N)=C(C#N)C1c1ccc(OC)c(C)c1OC (stereo not drawn)	1.1	-32.3%[inhibitor]	0.0%	-3.5	11.6%	-20.5%	2.4%
CC(C)(C)NC(=S)Nc1cccc(C(F)(F)F)c1	3.0	3.8%[15.4 µM]	·	0.7	-2.8%	5.5%	?
CCCCNC(=S)Nc1ccc(Oc2ccccc2)cc1	0.0	-11.0%	·	-1.4	50.1µM*	-8.4%	27.6%
Cc1ccc(C(C(=O)NCc2ccco2)N(C(=O)CNC(=O)c2cccs2)c2ccc(C)cc2C)cc1 (stereo not drawn)	1.4	1.2%	0.0%	-1.4	9.9%	2.3%	12.2%[38.3 µM]
COc1cccc(N2CCN(C(=O)CCc3nnc4ccc(N5CCOCC5)nn34)CC2)c1	0.9	3.5%	-0.8%	0.6	16.6%	10.8%	-0.7%
CN(CC(=O)Nc1ccc(F)cc1)C(=O)COC(=O)c1cc(Br)c(Br)s1	·	-10.5%	0.3%	1.7	·	-13.2%	6.6%
CCOC(=O)C1CCCN(C(=O)c2cc(-c3ccccc3)cs2)CC1 (stereo not drawn)	·	·	-1.5%	-1.1	·	·	1.7%
Cc1cc(Cl)ccc1OCC(=O)N(Cc1ccco1)C1CCS(=O)(=O)C1 (stereo not drawn)	1.1	-0.2%	0.3%	-3.1	6.2%	-7.1%	0.4%
COc1ccc(CCNC(=S)Nc2cccc(C)c2C)cc1	-0.5	-56.5%[inhibitor]	-3.5%	2.6	10.8%	1.2%	0.6%
CN(C)CCCN1C(=O)CSC1c1ccccc1 (stereo not drawn)	-1.3	-26.4%	-1.1%	-6.9	14.3%	1.9%	2.3%
CCOC(=O)[C@H]1[C@H]2COc3ccc(Cl)cc3[C@@H]2N2C(=O)[C@@H](C)NC(=O)[C@@]12C	·	-9.3%	0.5%	-2.7	·	0.7%	1.7%
Cc1c(CC(=O)N[C@@H](C)C(=O)O)c(=O)oc2c(C)c3occ(-c4ccccc4)c3cc12	6.0	8.4%	·	0.3	-10.5%	-8.6%	2.0%
C/C(CC(=O)N1CCN(C=O)CC1)=N\NC(=O)c1ccc([N+](=O)[O-])cc1	-0.3	-5.4%	-2.6%	5.9	?	-3.2%	1.3%
COc1ncccc1C(=O)N1CCCC(N2CCN(c3cccc(Cl)c3)CC2)C1 (stereo not drawn)	·	-0.4%	-2.7%	-1.3	23.4%	-16.8%	1.5%
NCCCC[C@H]1CNC(=O)C(=O)N1CCCCC1CCCCC1	1.8	-0.1%	-0.3%	-0.1	23.7%	2.1%	-1.1%
Cn1cc(C(=O)Nc2ccc(Cl)c(Cl)c2)cn1	·	-6.6%	·	4.6	·	-12.2%	-0.8%
COc1ccccc1-c1csc(Nc2ccc(Oc3ccccc3)cc2)n1	·	·	-4.3%	-2.8	·	·	11.0%
CCOC(=O)Cn1c(C)nc2c(C(=O)OCC)sc(C)c2c1=O	1.0	-11.7%	31.6µM*	2.6	-5.1%	-10.8%	-1.4%
COc1cccc(OC)c1C(=O)N1CCN(Cc2ccc3c(c2)OCO3)CC1	2.3	5.9%	0.5%	-3.4	-17.9%	6.9%[15.4 µM]	-0.6%
COc1ccc(C(=O)OCC(=O)Nc2ccc3c(c2)OCCO3)c(OC)c1	·	-6.1%	-1.8%	-0.2	·	-0.1%	0.6%
CCOC(=O)C1CCCN(S(=O)(=O)c2ccc3c4c2CC(=O)N4CC(C)S3)C1 (stereo not drawn)	-1.7	4.0%	-5.4%	12.4	0.1%	-19.5%	0.1%
Cc1cc(OCC(=O)N[C@@H](CSCc2ccccc2)C(=O)O)c2c(C)c(C)c(=O)oc2c1	0.4	·	4.5%	-6.6	19.2%	-2.3%	1.2%
CCCCOc1cccc(C(=O)Nc2ccc(NC(=O)c3ccco3)cc2)c1	1.2	-7.0%[15.4 µM]	·	-1.1	15.2%	8.4%	8.6%
N#CCCn1c(=O)c(-c2ccccc2)nc2cnc(N3CCNCC3)nc21	-24.0	·	·	·	9.4%	·	-0.2%
CN1C(=S)SC(/[N+]([O-])=C\c2ccc(Cl)cc2)C1(C)C (stereo not drawn)	1.1	-2.1%	0.0%	-2.6	-6.7%	11.1%	0.7%
O=C(Nc1cccc2ccccc12)c1ccc2sc([C@H]3C[C@H](O)[C@@H](CO)O3)nc2c1	·	·	-2.0%	2.5	·	·	3.4%
O=C(COC(=O)c1cccs1)NCc1ccc2c(c1)OCO2	0.4	-1.1%	-2.1%	1.3	-12.5%	4.2%	0.8%
Cc1c(C(=O)NC2CC2)oc2ccccc12	·	?	-1.8%	-3.0	·	1.4%	2.0%
O=C(NCc1ccccc1)Nc1cccn(Cc2ccccc2)c1=O	5.9	22.2%[15.4 µM]	25.1µM*	0.0	17.1%	0.5%	1.3%
COc1ccc(-c2nc(CCNS(=O)(=O)c3ccc4c(c3)OCCO4)cs2)cc1	4.9	-30.5%	4.0%	-2.9	5.6%	-26.8%	2.6%
CC(=O)N1c2c(ccc3ccccc23)C(C)CC12CCCCC2 (stereo not drawn)	3.9	-18.3%	-0.5%	0.6	3.1%	-15.0%	2.3%
CC(C)(C)OC(=O)NCCCC[C@@H](C(=O)NCCCCCCCCCCC(=O)N1CCN(C(=O)OC(C)(C)C)CC1)n1cc(CCCC(=O)O)nn1	·	?	0.7%	6.5	·	-12.1%	-0.9%
CC(=O)Nc1ccc(S(=O)(=O)Oc2ccc(N3C(=O)C4CCCCC4C3=O)cc2)cc1 (stereo not drawn)	-5.9	?	-1.1%	-4.5	-0.3%	?	-2.5%
O=C(NCc1ccco1)c1ccc(Cn2c(=O)c3ccccc3n(Cc3cccc(Cl)c3)c2=O)cc1	5.7	?	?	-1.5	?	7.8%	10.1%
Cc1sc(NC(=O)c2ccccc2)c(C(=O)N2CCN(C)CC2)c1C	1.0	-2.8%	-2.2%	-1.3	14.0%	4.6%	1.2%
Clc1cccc(CNc2ccn3nc(-c4ccccc4)cc3n2)c1	·	·	5.1%	11.6	·	·	2.0%
CCOC(=O)CC1C(=O)NCCN1S(=O)(=O)c1ccc(Cl)cc1 (stereo not drawn)	-2.9	-23.6%	-1.1%	0.5	-5.5%	1.7%	1.9%
Cc1cccc(CC2SC(N3CCN(c4ccccc4)CC3)=NC2=O)c1 (stereo not drawn)	5.6	-13.0%	0.7%	-0.1	6.7%	-0.6%	0.8%
Cc1ccc(C(=O)OCC(=O)NCCc2ccc(S(N)(=O)=O)cc2)o1	·	-2.0%	-0.2%	-1.1	·	8.2%	-0.1%
c1ccc2c(c1)CCN(c1nc3ccccc3n3cnnc13)C2	-2.3	0.6%	?	-6.4	-6.7%	6.7%	0.5%
